# Screening results as filed in PubChem.
# CtBP-E1A inh = blocks the CtBP interaction with E1A; AlphaScreen GST-E1A/His-CtBP binding, 1536-well; active compounds read low; control for the full effect not named in the record; activity change, % (test concentration not listed); hit rate 0.49% among 340,000; in the data active means activity change below about -65%; inconclusive means about -30% to -65%; inactive means above about -30%; further: on the % scale 0 is the no-effect control and ±100 the full control effect
#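 Protein mix (5X: 125 nM each GST-E1A, His-CtBP) was incubated with pinned compound 2 h at 37 deg C in dark, in 50 mM Tris pH 8.0 buffer with 300 mM NaCl. Glutathione donor and nickel acceptor beads followed; AlphaScreen signal read after 1 h.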
# D2 PAM = human D2 receptor positive allosteric modulation. P14416. DiscoveRx D2 beta-arrestin cells, luminescence, 90 min; 100% = 57 uM dopamine signal. potentiation, % (no concentration beside the values). hit rate 0.23% among 360,000. AID 624464; active = potentiation of 50% or more; inconclusive = 30% to 50%; inactive = 30% or less;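 further: compound concentration not given in the record; tested on top of an EC20 dose of dopamine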
#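 PathHunter D2 cells, attached overnight at 37 deg C, received compound in DMSO plus dopamine at EC20 (50 nM final) for 90 min at 37 deg C. Beta-arrestin recruitment was read as luminescence after 1 h with detection reagent at ambient temperature.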
# Six1-Eya2 inh = inhibitors of human Six1/Eya2 interaction. AlphaScreen GST-Six1/His-Eya2 binding, biochemical; active compounds read low; control for the full effect not named in the record. Q15475+O00167. hit rate 0.56% among 360,000. activity change, % (no concentration beside the values); in the data active = activity change below about -65%; inconclusive = about -30% to -65%; inactive = above about -30%; further: on the % scale 0 is the no-effect control and ±100 the full control effect
# Target sequence (O00167 whole entry, looked up): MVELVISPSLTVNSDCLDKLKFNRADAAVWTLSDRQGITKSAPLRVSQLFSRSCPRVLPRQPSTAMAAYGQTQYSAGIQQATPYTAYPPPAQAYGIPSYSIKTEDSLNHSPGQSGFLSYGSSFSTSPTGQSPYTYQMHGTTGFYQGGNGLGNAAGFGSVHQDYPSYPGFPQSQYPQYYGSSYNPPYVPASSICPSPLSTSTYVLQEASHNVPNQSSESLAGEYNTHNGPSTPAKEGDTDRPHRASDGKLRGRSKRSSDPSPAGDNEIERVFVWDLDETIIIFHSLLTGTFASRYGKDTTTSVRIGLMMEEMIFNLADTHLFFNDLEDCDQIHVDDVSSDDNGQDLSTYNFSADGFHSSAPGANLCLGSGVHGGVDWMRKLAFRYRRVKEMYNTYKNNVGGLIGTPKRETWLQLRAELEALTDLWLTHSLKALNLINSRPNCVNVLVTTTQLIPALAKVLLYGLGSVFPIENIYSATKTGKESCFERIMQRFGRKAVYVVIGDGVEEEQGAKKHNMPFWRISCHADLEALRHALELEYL
# Target sequence (Q15475 whole entry, looked up): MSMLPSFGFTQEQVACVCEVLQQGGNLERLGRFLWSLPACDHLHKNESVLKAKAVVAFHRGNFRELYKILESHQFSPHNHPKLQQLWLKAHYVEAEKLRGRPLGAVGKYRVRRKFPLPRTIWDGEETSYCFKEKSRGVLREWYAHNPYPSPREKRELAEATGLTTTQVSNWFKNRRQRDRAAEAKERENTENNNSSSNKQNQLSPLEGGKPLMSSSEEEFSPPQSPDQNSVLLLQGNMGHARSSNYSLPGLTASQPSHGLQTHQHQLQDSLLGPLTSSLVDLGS
#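 GST-Six1 + His-Eya2 (5X stock: 250/500 nM); Tris pH 8.0, 300 mM NaCl, 0.05% BSA, 0.02% Tween 20; GSH donor/Ni acceptor beads; 1 h 37 °C dark; AlphaScreen readout.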
# TRPML1 agonist = activates the human TRPML1 channel; Q9GZU1; TRPML1-expressing cells, Ca2+ dye fluorescence, FDSS; host cell line not named in the record; reference of the full effect not given here; activation, % (no concentration beside the values); hit rate 0.12% among 410,000; AID 624414; in the data active = activation above about 50%; inconclusive = about 30% to 50%; inactive = below about 30%; further: 0% is about no effect; the text of the record puts the active cut at 80%
#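 Agonist activity was taken from a 110 s kinetic Ca2+ dye read on the FDSS after pinning compounds onto TRPML1-DL cells. The cells were seeded at 1,500/well with Tet inducer, incubated about 16 h, then dye-loaded at room temperature.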
# TRPML1 blocker = human mucolipin-1 channel inhibition. activity change, negative = inhibition, % (no concentration beside the values). AID 624415. TRPML1-inducible cells, Ca2+ dye fluorescence, FDSS; active compounds read low; inhibition of EC80 agonist-evoked calcium signal. hit rate 0.02% among 390,000. Q9GZU1; in the data active means activity change below about -50%; inconclusive means about -30% to -50%; inactive means above about -30%;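 further: stimulus is agonist 54-4 at its EC80 concentration; on the % scale 0 is the no-effect control and ±100 the full control effect; compound concentration not given in the record; the text of the record puts the active cut at -80%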
#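 Tet-induced TRPML1-DL cells loaded with Ca8 no-wash calcium dye were read kinetically on FDSS. Compound addition was followed by EC80 agonist 54-4 (4 uM final); inhibition was read over 110 s.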
# TRPV1 potentiator = potentiators of human vanilloid receptor 1 (TRPV1) | TRPV1-expressing cells, Fluo-8 calcium influx, capsaicin EC20 potentiation; host cell line not named in the record; control for the full effect not named in the record | AID 540277 | hit rate 0.02% among 320,000 | Q8NER1 | potentiation, % at 8.33 µM; active means potentiation above 80%; inconclusive means 30% to 80%; inactive means below 30%; further: 0% is about no effect
#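 Fluo-8 calcium influx in TRPV1-expressing cells, kinetic read (ex 480/em 520 nm). Compound added and read 3 min for agonist activity, followed by capsaicin at EC20 final and 2 min further read for enhancement.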
# * hit, by the source's call; ? = inconclusive; nt = no result given; & = joins results of further samples. Not a hit list; any-hit rate near 0.95%.
SMILES,CtBP-E1A inh,D2 PAM,Six1-Eya2 inh,TRPML1 agonist,TRPML1 blocker,TRPV1 potentiator
c1ccc(C2c3[nH]c4ccccc4c3CCN2Cc2cccn2-c2ccccn2)nc1 (configuration not stated),-25,-8,-7,0.7,-1,-1
O=C(COC(=O)c1ccc(S(=O)(=O)NCc2ccco2)cc1)NC1CCCCCC1,-2,-2,0,1.6,5,-1
Cc1ccc(NC(=S)/C(=C(\[O-])c2ccc(Cl)s2)[n+]2cccc(CO)c2)cc1C,-11,-29,-11,-0.4,6,?
O=C(O)CN1CCN(CC(=O)O)CCN(CC(=O)O)CCN(CC(=O)O)CC1,?,7,-3,0.4,-1,-9
N#Cc1ccccc1CSc1nc2ncc(Br)cc2[nH]1,-2,0,-8,3.6,36,5
O=C(COC(=O)c1cccs1)Nc1cccc(Cl)c1,4,2,6,1.4,2,0
O=[N+]([O-])C(/C=C(\Cl)[N+](=O)[O-])=C1N(Cc2ccc(Cl)nc2)CCN1Cc1ccc(Cl)nc1,-22,6,-29,-0.3,-6,nt
O=S(=O)(NCCc1csc(-c2cccnc2)n1)c1ccc2c(c1)OCCO2,-9,-5,-6,-0.8,1,4
O=C(CO/N=C\c1ccccc1)Nc1ccccc1C(=O)N1CCOCC1,4,-11,-1,0.4,4,-8
Cc1cc(C(=O)N2CCCc3ccccc32)ccc1[N+](=O)[O-],-14,-1,-13,-0.4,-19,-1
CCOC(=O)C1CCN(C(=O)c2cc3c(=O)n4ccccc4nc3n2C)CC1,1,1,2,0.3,1,0
O=C(c1cc(=O)c2ccccc2o1)N1CCN(c2ccccc2)CC1,6,0,0,-0.8,-3,-4
COc1ccc(-n2c(SCC(=O)N/N=C(\C)c3cccnc3)nc3ccccc3c2=O)cc1,2,0,1,-0.6,9,11
COc1ccc(/C=N/NC(=O)c2cc(C)oc2C)cc1OCc1ccccc1,-11,-6,-19,0.6,4,15
O=C(Nc1cccc(Cl)c1Cl)C1CCN(c2ncccn2)CC1,6,-2,5,-0.6,-1,6
COc1ccc(C(=O)C2CCCN(Cc3nc4ccccc4nc3C)C2)cc1OC (configuration not stated),0,1,5,0.7,6,11
Cc1ccc(N(CC(=O)NCc2ccc3c(c2)OCO3)S(=O)(=O)c2c(C)noc2C)cc1,-1,-6,1,1.9,6,-8
O=C(Nc1cc(Br)c(O)c(Br)c1)c1cccc(NC(=O)c2ccco2)c1,?,0,-23,0.8,8,-4
O=[N+]([O-])c1ccc(COc2ccc(CN3CCCCC3)cc2)cc1,-10,-18,-10,-0.1,18,nt
CCS(=O)(=O)c1ncc(CO)n1CCc1ccccc1,3,-5,-2,0.7,12,2
CCCc1nnc(NC(=O)CNc2ccc(F)cc2)s1,-6,-22,0,-0.3,-4,?
CC(CO)NS(=O)(=O)c1ccc(Br)cc1F (configuration not stated),4,-5,1,-0.3,-5,nt
O=C(CBr)Nc1c2c(nn1-c1ccccc1)CSC2,33,-9,14,0.0,-1,13
Cc1ccc2c(CC(=O)N3CCN(c4ccccc4)CC3)coc2c1,-1,-3,-1,1.4,17,-11
COCCN(C(=O)COC(=O)COc1ccc2ccccc2c1)c1c(N)n(Cc2ccccc2)c(=O)[nH]c1=O,-3,-11,0,2.2,34,nt

# New compounds follow.
SMILES,CtBP-E1A inh,D2 PAM,Six1-Eya2 inh,TRPML1 agonist,TRPML1 blocker,TRPV1 potentiator
O=S(=O)(c1ccccc1F)N1CCN(Cc2cc3c(cc2Br)OCCO3)CC1,13,-15,-10,-0.1,13,3
CC(C)c1nnc(NC(=O)c2cccnc2)s1,0,-11,11,-0.3,8,9
COc1cc2cc(C(=O)N3CCc4ccccc4C3)[nH]c2cc1OC,3,-7,-1,0.8,12,2
CCOC(=O)N1CCN(C(=S)NC(=O)c2cncc(Br)c2)CC1,5,13,1,0.4,9,2
OCC1(Cc2ccccc2Cl)CCN(C/C=C/c2ccccc2)CC1,nt,-14,-4,1.3,17,-2
N#Cc1nc(-c2ccc(OCc3ccc(Cl)cc3)cc2)oc1N1CCC(C(N)=O)CC1,-2,-15,1,0.4&-0.5,7,?
c1ccc(CNc2nc(CN3CCOCC3)nc3scc(-c4ccccc4)c23)cc1,1,-9,2,-0.4,9,-10
CC1(C)C(=O)OC(C(=O)c2ccccc2)C(C)(C)C1=O (configuration not stated),-1,-18,8,-0.2,34,-2
C=CCNc1cc(F)ccc1S(=O)(=O)NCC=C,10,-7,3,-1.0,-4,nt
O=C(CCN1C(=O)C2C3C=CC(C3)C2C1=O)N1CCCCC1 (configuration not stated),1,-8,-14,-0.5,2,1
CC(=O)Oc1ccc(N2C(=O)CC(N3CCOCC3)C2=O)cc1 (configuration not stated),16,4,14,-0.4,12,2
COc1cccc2sc(=NC(=O)CS(=O)(=O)c3ccc(F)cc3)n(C)c12,7,-10,7,-0.4,9,0
CNC(=O)c1ccc(NC(=O)c2ccccc2OCc2c(C)noc2C)cc1,3,-1,5,-0.3,0,nt
CCCCn1nnnc1C(c1ccnc2ccccc12)N1CCN(C/C=C/c2ccccc2)CC1 (configuration not stated),-17,-11,-20,20,-2,nt
COc1nc(N2CCCCCC2)nc(N2CCCCCC2)n1,18,-25,18,-0.5,30,-14
CCOc1ccc(-c2n[nH]c(C)c2-c2ccccn2)c(O)c1,nt,-14,1,0.2,6,-1
C(=N\Nc1nc(Nc2ccccc2)nc(N2CCOCC2)n1)/c1c[nH]c2ccccc12,-21,-10,-9,0.7,-4,12
O=C(N/N=C/c1ccc2c(c1)OCO2)c1ccc(COc2cccc3cccnc23)cc1,nt,-4,-8,1.0,6,-16
COc1ccc(N2CCN(c3nc4ccc(C)cn4c(=O)c3C=O)CC2)cc1,-2,-2,-3,-0.2,0,0
Cc1nnc(SCc2ccc(F)cc2Cl)s1,15,-33,2,0.6,1,-10
O=C(CCCO)CCCCCCCCC[C@H]1N[C@H](CO)[C@@H](O)[C@@H]1O,-1,-12,-7,-0.6,14,9
CN(c1ccc(F)cc1)S(=O)(=O)c1ccc(Cl)c(C(=O)NC2(C)CCS(=O)(=O)C2)c1 (configuration not stated),nt,-5,8,-0.3,20,3
COC(=O)CS(=O)(=O)c1cc([N+](=O)[O-])ccc1NC(=O)OC,-20,-16,8,0.2,-5,10
CC(=O)Nc1ccc(NC(=O)CSc2nnc(C3CC3)n2-c2ccccc2)cc1,12,-6,-1,-0.4,-6,2
CCCCn1c(N)c(N(CCOC)C(=O)c2cccc(S(=O)(=O)N(C)c3ccccc3)c2)c(=O)[nH]c1=O,-5,-18,3,0.2,38,16

# Part of the list above, as tab-separated lines.
mol	CtBP-E1A inh	D2 PAM	Six1-Eya2 inh	TRPML1 agonist	TRPML1 blocker	TRPV1 potentiator
CN(c1ccc(F)cc1)S(=O)(=O)c1ccc(Cl)c(C(=O)NC2(C)CCS(=O)(=O)C2)c1 (configuration not stated)	nt	-5	8	-0.3	20	3
COC(=O)CS(=O)(=O)c1cc([N+](=O)[O-])ccc1NC(=O)OC	-20	-16	8	0.2	-5	10
CC(=O)Nc1ccc(NC(=O)CSc2nnc(C3CC3)n2-c2ccccc2)cc1	12	-6	-1	-0.4	-6	2
CCCCn1c(N)c(N(CCOC)C(=O)c2cccc(S(=O)(=O)N(C)c3ccccc3)c2)c(=O)[nH]c1=O	-5	-18	3	0.2	38	16

# Remaining list, next part:
SMILES,CtBP-E1A inh,D2 PAM,Six1-Eya2 inh,TRPML1 agonist,TRPML1 blocker,TRPV1 potentiator
O=C(NCCc1cccc(Cl)c1)c1cccc([N+](=O)[O-])c1,0,-34,2,-1.1,-17,-29
CC(C)NC(=O)CC(=O)N/N=C/c1ccc(F)cc1,19,-11,3,-0.1,15,nt
COc1ccc(CN2CCC2(C)C(=O)Nc2cnc3ccccc3c2)c2ccccc12 (configuration not stated),-11,-6,-18,-0.4,nt,nt
O=C(CCN1C(=O)C2C3CCC(C3)C2C1=O)Nc1ccc([N+](=O)[O-])cc1 (configuration not stated),1,-4,5,0.1,18,-20
CCOC(=O)C1CCN(S(=O)(=O)c2ccc3[nH]c(=O)oc3c2)CC1,1,-1,5,0.1,-11,?
CCOC(=O)C1CCN(C(=O)COC(=O)C23CC4CC(CC(C4)C2)C3)CC1,-3,-5,10,0.1,-13,nt
O=S(=O)(NCCSc1nc2ccccc2o1)c1ccccc1,-11,-11,-12,1.8,-6,1
Cn1nnc(NC(=S)NC(=O)c2cccc3ccccc23)n1,4,-20,4,-0.2,-18,-10
COc1ccc(NC(=O)CSc2nc3ccccc3c(=O)n2CCCN2CCOCC2)c(OC)c1,-2,-13,-2,1.6,8,-2
CCNc1nc(NCC)nc(OCCNS(=O)(=O)c2cc(C)ccc2C)n1,2,-9,-1,-0.5,5,?
CN(C)/C=C/C(=O)c1cnc2n(c1=O)CCS2,4,-5,-3,0.2,-3,28
COC(=O)CNc1nc(Cl)nc(N2CCC(C)CC2)n1,nt,-15,9,-1.0,-8,-22
CCOc1ccc(CCNC(=O)CSc2cc(=O)n(C)c3ccccc23)cc1OCC,-4,-5,?,1.6&0.9,-5&-1,8
Cc1ccc(S(=O)(=O)N2CCN(C(=O)CCCOc3ccc(Cl)cc3C)CC2)cc1,11,-22,14,2.4,8,-9
COC(=O)NCCOC(=O)N(O)c1ccc(Br)cc1,-3,17,-2,3.0,1,-3
Cc1cc(C)nc(SC2CCCCC2O)n1 (configuration not stated),-7,9,1,-0.4,-4,-1
COc1cccc(C(C)(O)c2nc(-c3ccoc3)cs2)c1 (configuration not stated),2,-5,-23,-0.2,nt,nt
S=C(Nc1ccc2nc(-c3ccccn3)c(-c3ccccn3)nc2c1)N1CCCCCC1,-2,0,4,0.1,-21,20
COc1ccc(-c2csc(-c3ccc(O)cc3)n2)cc1,1,-6,-5,nt,nt,19
CC1(c2ccccc2)NC(=O)N(CC(=O)Nc2ccc([N+](=O)[O-])cc2)C1=O (configuration not stated),-1,-3,-4,-0.1,3,-2
Nc1nc(N2CCN(C/C=C/c3ccccc3)CC2)nc2ccccc12,5,-28,-4,0.0,9,-16
COc1ccc(S(=O)(=O)N2CCOCC2)cc1C(=O)NC1CCCCCC1,2,-9,1,0.0,2,-21
O=C(Nc1cccc(Cl)c1)N1CCSc2cc(Cl)ccc21,1,-14,-3,0.5,0,-38
c1ccc(-c2csc(-n3cnnn3)n2)cc1,10,-8,26,0.1,-7,1
COc1ccc(/C=C2\CN(Cc3ccccc3)C/C(=C\c3ccc(OC)c(O)c3)C2=O)cc1O,-5,-16,-2,3.2,13,15

# Further entries follow:
SMILES,CtBP-E1A inh,D2 PAM,Six1-Eya2 inh,TRPML1 agonist,TRPML1 blocker,TRPV1 potentiator
COC(=O)c1ccc(NC(=O)c2cc[n+](Cc3ccccc3)cc2)cc1,3,-1,1,-0.1,-4,-14
NCCCC[C@H]1CNC(=O)C(=O)N1CCCCC1CCCCC1,nt,-2,-1,0.0,-11,15
CCOC(=O)c1ccc(NC(=O)NNS(=O)(=O)c2cc(OC)ccc2OC)cc1,0,8,-5,0.5,-8,13
CCOC(=O)CCN,5,-5,2,0.3,-14,-8
N#C/C(=C\c1c[nH]c2ccccc12)C(=O)Nc1ncc(Cc2ccc(Cl)cc2Cl)s1,-14,-18,-8,4.3,46,-2
COc1cc(C2CC(c3cccnc3)=NN2c2ccc(F)cc2)cc(OC)c1OC (configuration not stated),nt,-5,26,1.0,14,0
CC1CCC2(CC1)NC(=O)N(CC(=O)NCc1cccs1)C2=O (configuration not stated),-1,1,15,-0.2,6,1
